AmpC nodet inh – blocks E. coli AmpC beta-lactamase in absence of detergent; actives 1.8% (n = 71,000); AmpC nitrocefin hydrolysis, absorbance 480 nm, no detergent; potencies from a single point are estimates; Potency, µM (highest dose often 28.7 µM), for inactives: top-dose activity change, negative = inhibition; P00811; active = falling curve, for most hits resting on a single point; inconclusive = weak or doubtful change; inactive = flat or rising curve; note: % of control where 0% means no effect; about half of the hits show no inhibition at the top dose; a quarter of the inactives give rising signals
Target sequence (P00811 whole entry, looked up): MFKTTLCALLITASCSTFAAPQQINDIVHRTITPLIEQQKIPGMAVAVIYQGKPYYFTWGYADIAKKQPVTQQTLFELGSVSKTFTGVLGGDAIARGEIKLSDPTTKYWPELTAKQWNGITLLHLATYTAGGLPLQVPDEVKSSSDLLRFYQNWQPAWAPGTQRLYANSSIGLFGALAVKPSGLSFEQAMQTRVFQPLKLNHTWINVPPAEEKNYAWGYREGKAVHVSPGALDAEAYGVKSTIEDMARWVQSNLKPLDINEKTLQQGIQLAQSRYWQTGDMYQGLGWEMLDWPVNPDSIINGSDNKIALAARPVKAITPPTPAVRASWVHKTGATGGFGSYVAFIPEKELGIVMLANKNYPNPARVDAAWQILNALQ
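AmpC, 20 mM phosphate pH 7.0; 15 min cpd preinc, RT; start with nitrocefin (800 uM stock); A480 kinetic read, 20 s intervals, 4 min. No-enzyme wells = negative control.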
An asterisk follows results filed as active; ? = inconclusive; & = joins results of further samples; [ ] = dose if it differs, or a comment. Potency is the fitted concentration of half-maximal effect. These rows are one share of the data; rates above refer to the full screens.

SMILES | AmpC nodet inh
CC(C)(O/N=C(\C(=O)N[C@@H]1C(=O)N2C(C(=O)[O-])=C(C[n+]3ccccc3)CS[C@@H]12)c1csc(N)n1)C(=O)O | ?
CCCCC(CC)CNC(=O)c1cccs1 (stereo unspecified) | -6%
CC(C)C(=O)N(Cc1ccc2c(c1)OCO2)Cc1ccccn1 | 12%
O=C1CC(N2CCN(c3ccccc3)CC2)C(=O)N1CCc1ccccc1 (stereo unspecified) | 93%
Cn1c(NC(=O)c2cccs2)c(-c2cccs2)c(=O)c2ccccc21 | 31%
CCOC(=O)c1c(C)[nH]c(C(=O)Cn2nnc(-c3ccccc3)n2)c1C | 8%
CC1CCN(CC(C)OC(=O)c2ccc3c(c2)OCCO3)CC1 (stereo unspecified) | 4µM*[single pt active]
O=C(NCCN1CCOCC1)c1cccc(S(=O)(=O)N2CCCCCC2)c1 | 21%
Clc1ccc(Cn2ncc3c(N4CCCC4)ncnc32)cc1 | 83%
Cc1nc2ccccc2n1CC(=O)OCC(=O)Nc1ccc2c(c1)OCCO2 | 4%
COc1cccc(C2CC(c3ccccc3)n3ncnc3N2)c1 (stereo unspecified) | ?
CC(C)(C)C(=O)CNS(=O)(=O)c1ccc(S(=O)(=O)NC2CCCC2)cc1 | 13%
CCOCCCNC(=O)C1CCCN1C(=O)NC1CCCCC1 (stereo unspecified) | 2%
O=C(Cn1cc(C(=O)c2cccs2)c2ccccc21)NCc1cccs1 | -20%
O=S(=O)(NCCc1ccc2c(c1)OCCO2)c1cccs1 | -14%
CC1CCN(C(=O)Cn2c(=O)n(Cc3ccc4c(c3)OCO4)c(=O)c3ccccc32)CC1 | 52%
COCCN1CC(=O)N(c2cccc(C)c2C)C(c2ccc(Cl)cc2)C1=O (stereo unspecified) | 101%
COc1ccccc1NC(=O)C1=C(C)Nc2nnnn2C1c1ccccc1OC (stereo unspecified) | 14%
CCOc1ccc(OCC)c(NC(=O)C2CCN(S(=O)(=O)c3cccc4nonc34)CC2)c1 | 53%
Cc1cc(C(F)(F)F)nn1CC(=O)N1CCCCC1C (stereo unspecified) | 4%
Cc1nc2nc(Cc3ccccc3)nn2c(C)c1Cl | 2%
O=C(C1CCCN(c2ncccn2)C1)N1CCc2ccccc21 (stereo unspecified) | 23%
COc1ccc(CC(=O)N2CCN=C2SC)cc1 | 11%
Cc1noc(C)c1C(=O)N1CCC[C@@]2(CCN(c3cccc(-c4ccccc4)c3)C2)C1 | 149%
CCNC(=O)/N=C1/NC(=O)C(C(C)C)O1 (stereo unspecified) | -18%

3 compounds from above, arranged by SMILES length, descending.
SMILES | AmpC nodet inh
CC(C)(O/N=C(\C(=O)N[C@@H]1C(=O)N2C(C(=O)[O-])=C(C[n+]3ccccc3)CS[C@@H]12)c1csc(N)n1)C(=O)O | ?
CCOc1ccc(OCC)c(NC(=O)C2CCN(S(=O)(=O)c3cccc4nonc34)CC2)c1 | 53%
CC(C)C(=O)N(Cc1ccc2c(c1)OCO2)Cc1ccccn1 | 12%

Further results follow.
SMILES | AmpC nodet inh
Cc1ccc2c(c1)N[C@H](c1ccc(C(=O)O)cc1)c1cccn1-2 | 9%[5.75 µM]
O=C(O)c1cccc(NC(=O)C2CC(=O)N(Cc3ccccc3)C2)c1 (stereo unspecified) | 4%
OCCN(Cc1ccccc1)Cc1cccc(F)c1 | 6%
CCN(CC(=O)Nc1cccc(OC)c1)C(=O)C1CCN(C(=O)Nc2ccccc2)CC1 | 40%
Cc1ccc2[nH]c(=O)c(-c3nc4cc(C)ccn4c3NCc3ccco3)cc2c1 | 8%
CC(C)COc1ccc(-c2nnc(-c3ccco3)o2)cc1 | 59%
CC1CC(=O)Nc2ccccc2S1(=O)=O (stereo unspecified) | -9%
COc1ccc(NC(=O)c2nnn(Cc3cccc(F)c3)c2N)c(OC)c1 | 2.5µM*[single pt active]
COc1ccc(C2C(C(=O)c3sc(C)nc3C)=C(O)C(=O)N2CCN(C)C)cc1OC (stereo unspecified) | -6%
O=C(CCCCCN1C(=O)c2ccccc2C1=O)NC1CCCC1 | 26%
CCn1c(SCC(=O)c2c[nH]c3ccccc23)nnc1-c1cccs1 | -4%
O=C(Nc1cc(C(F)(F)F)ccc1Cl)C1CCN(c2nnc(-n3cccc3)s2)CC1 | 2%
CCCC(=O)NC(C)c1nc2ccccc2n1C (stereo unspecified) | 2%
CN(C)c1ccc(CN(C(=O)C2COc3ccccc3O2)C2CCS(=O)(=O)C2)cc1 (stereo unspecified) | 71%
COCCN(CCOC)Cc1cc(=O)oc2cc3c(cc12)CCC3 | -9%
CCOc1ccccc1C1C(C(=O)Nc2ccc(OC)cc2)=C(C)Nc2nc(CCCO)nn21 (stereo unspecified) | 32%
COc1ccc(Cl)cc1C(=O)N(Cc1nc(-c2cccc(C)c2)no1)C(C)C | 85%
O=C(NCCCN1CCCC1=O)c1ccc(CNS(=O)(=O)c2ccc(F)cc2)cc1 | 12%
CCOC(=O)N1CCC(c2cc(=O)n3[nH]c(-c4ccccc4)cc3n2)CC1 | -3%
Cc1cc(C)nc(SCC(=O)Nc2ccc(N3CCOCC3)c(Cl)c2)n1 | 24%
Cn1cccc1C(=O)N1CCC2(CC1)CCN(c1ccccn1)CC2 | 111%
CCOC(=O)C1CCCN(C(=O)c2ccc3c(c2)OCO3)C1 (stereo unspecified) | -6%
O=C(O)C1CCCCC1C(=O)NCCc1cccc(Cl)c1 (stereo unspecified) | -7%
CC1(C)CC(NS(=O)(=O)c2ccccc2)CC(C)(C)N1 | -3%
CC1=CC(C)C(C(=O)O)C(C(=O)O)C1 (stereo unspecified) | -2%

Among those listed so far, these contain a Cl atom.
SMILES | AmpC nodet inh
Clc1ccc(Cn2ncc3c(N4CCCC4)ncnc32)cc1 | 83%
COCCN1CC(=O)N(c2cccc(C)c2C)C(c2ccc(Cl)cc2)C1=O (stereo unspecified) | 101%
Cc1nc2nc(Cc3ccccc3)nn2c(C)c1Cl | 2%
O=C(Nc1cc(C(F)(F)F)ccc1Cl)C1CCN(c2nnc(-n3cccc3)s2)CC1 | 2%
COc1ccc(Cl)cc1C(=O)N(Cc1nc(-c2cccc(C)c2)no1)C(C)C | 85%
Cc1cc(C)nc(SCC(=O)Nc2ccc(N3CCOCC3)c(Cl)c2)n1 | 24%
O=C(O)C1CCCCC1C(=O)NCCc1cccc(Cl)c1 (stereo unspecified) | -7%

Additional structures.
SMILES | AmpC nodet inh
COc1ccccc1CNC(=O)C1CCCN(S(=O)(=O)c2cnc[nH]2)C1 (stereo unspecified) | 2%
Cn1c(C(=O)NCc2ccc3c(c2)OCO3)cc2sccc21 | -7%
Cn1c2ccccc2c2cnn(CC(=O)N3CCN(c4ncccn4)CC3)c(=O)c21 | 26%
CC(C)CCN(C)C1CCN(S(=O)(=O)c2ccc(F)cc2)CC1 | -7%
CCOC(=O)C1=C(C)N2C(=C(C#N)[C@@H]1c1ccc(C(=O)OC)cc1)SC[C@@]2(O)C(C)(C)C | 28%
COC(=O)C1C2C=CC3(CN(C4CCCC4)C(=O)C13)O2 (stereo unspecified) | 8%
CCOC(=O)c1cnn2c(C(F)(F)F)cc(-c3ccccc3)nc12 | 16%
COc1ccc(-c2cc(C(F)F)nc(-n3nc(C)cc3C)n2)cc1 | 95%
O=C(NCc1cccc(CNC(=O)c2ccco2)c1)c1ccco1 | -11%
CCCCOc1cccc(C(=O)N(Cc2ccco2)C2CCS(=O)(=O)C2)c1 (stereo unspecified) | 53%
CCCN1CCN(CCCNC(=O)c2cc3c(=O)n(C)c4ccccc4c3n2C)CC1 | 4µM*[single pt active]
CCC1(C)Cc2ccccc2-c2nc3n(c(=O)c21)CCCCC3 (stereo unspecified) | 36%
COC(=O)CSc1nc2ccccc2nc1SCC(=O)OC | 15%
CCN1CCN(C(=O)C2c3cc(OC)c(OC)cc3C(=O)N3CCc4ccccc4C23)CC1 (stereo unspecified) | 22%
COC(=O)c1cc(Br)c(=O)n(-c2ccccc2OC)c1 | -10%
c1cc(OCC2CO2)cc(OCC2CO2)c1 (stereo unspecified) | 0%
Cc1cc(C)n(-c2ccc(C(=O)Nc3nc4ccccc4s3)cc2)n1 | 71%
Cc1cccc2cc(CN(Cc3ccco3)S(=O)(=O)c3ccc4c(c3)OCCO4)c(=O)[nH]c12 | 34%
Cc1ccc2ncnc(NCCCN3CCOCC3)c2c1 | -14%
N#C/C(=C\c1ccc(O)c(O)c1)C(=O)NCCc1ccccc1 | ?
C=CC(N)=O | -3%&-7%
COC(=O)c1ccc(C)c(NC(=O)c2nn(C)c(=O)c3ccccc23)c1 | 17%
Clc1ccc2c(NC3CCC(N4CCCCC4)CC3)ccnc2c1 (stereo unspecified) | 5%[5.75 µM]
N#Cc1ccsc1NC(=O)c1cnccn1 | 0%
O=C1OC(c2ccccc2)=C/C1=C\N1CCOCC1 | 2%

Following part.
SMILES | AmpC nodet inh
N#CCCn1c(=O)c(-c2cc(F)cc(F)c2)nc2cnc(Oc3ccccc3)nc21 | 25%
CO[C@H]1[C@H](O[C@H]2O[C@@H](C)[C@@H](O[C@@H]3C[C@](C)(O)[C@H](O)[C@H](C)O3)[C@@H](N(C)C)[C@@H]2O)[C@@H](CC=O)C[C@@H](C)[C@@H](O[C@H]2CC[C@H](N(C)C)[C@H](C)O2)/C=C\C=C/C[C@@H](C)OC(=O)C[C@H]1O | 84%[12.8 µM]
C=CCn1c(SCC(=O)Nc2nccs2)nnc1-c1cc2cccc(OC)c2o1 | -21%
NCCC[C@@H](CC(=O)N[C@@H]1CCNC[C@H]1C(=O)N[C@H](CC(=O)N[C@@H](CCC(=O)O)CC(=O)O)Cc1ccccc1)NC(=O)C[C@H](Cc1c[nH]c2ccccc12)NC(=O)[C@@H]1CNCC[C@H]1N | 113%
c1ccc(OCCCn2nnc(-c3cccnc3)n2)cc1 | 17%
CC(=O)C1=C(O)C(=O)N(CCN2CCOCC2)C1c1ccccc1 (stereo unspecified) | 15%
c1coc(Cn2c(SCc3nc4ccccc4[nH]3)nnc2-c2cccs2)c1 | -8%
COc1ccc(C(C)=O)cc1CN1C(=O)C(C)N(c2ccc(C)cc2)C1=O (stereo unspecified) | 75%
O=C1Nc2ccc(S(=O)(=O)NCc3ccco3)c3cccc1c23 | 0%
NN(CC(=O)O)CC(=O)O | -8%[5.75 µM]
Clc1ccc(-c2nnc3sc(-c4ccco4)nn23)c(Cl)c1 | -11%
O=C1C2CCCN2C(c2ccncc2)N1c1ccc(Cl)c(Cl)c1 (stereo unspecified) | 37%
CC(=O)c1cccc(N(CC(=O)N2CCOCC2)S(C)(=O)=O)c1 | -1%
Cc1cc(NC(=O)CSc2nc(CCC3CCCC3)nc3ccccc23)no1 | -3%
COc1cccc(N2CCN(C(=O)CN(C)S(=O)(=O)c3ccc4c(c3)CCC(=O)N4)CC2)c1 | 107%
Cc1ccc(S(=O)(=O)C(F)(F)F)cc1NC(=O)c1cccnc1 | -7%
CCOc1cc(S(=O)(=O)N2CCCCC2)ccc1Cl | 14%
O=C(Cc1cc(=O)[nH]c(=O)[nH]1)N1CCN(C(=O)c2ccco2)CC1 | 13%
COc1ccc(Oc2c(C)oc3c(CN(C)C)c(O)ccc3c2=O)cc1 | -6%
CCc1ccc2c(c1)C(NC(C)=O)C(=O)N2CC (stereo unspecified) | 24%
CCS(=O)(=O)n1nc(-c2ccco2)nc1SC | -4%
O=C(NCC1CCCO1)C1c2ccccc2C(=O)N1C1CCCCCCC1 (stereo unspecified) | -3%
CCC1Oc2ccccc2N(CC(=O)NCCC2=CCCCC2)C1=O (stereo unspecified) | 11%
COC(=O)[C@H](Cc1ccccc1)NC(=O)NCC1CCCO1 (stereo partly specified) | 2%
CN1CCc2c(sc3c2C(=O)NC(c2ccccn2)N3)C1 (stereo unspecified) | 23%

4 compounds picked at random from the list so far, as already listed:
SMILES | AmpC nodet inh
Cc1cc(NC(=O)CSc2nc(CCC3CCCC3)nc3ccccc23)no1 | -3%
CCC1Oc2ccccc2N(CC(=O)NCCC2=CCCCC2)C1=O (stereo unspecified) | 11%
c1ccc(OCCCn2nnc(-c3cccnc3)n2)cc1 | 17%
O=C1Nc2ccc(S(=O)(=O)NCc3ccco3)c3cccc1c23 | 0%

The list continues.
SMILES | AmpC nodet inh
O=C(CN1CCOCC1)NC1CC2CCC1C2 (stereo unspecified) | 2%
Cc1cc(Cl)ccc1Nc1sc(C(=O)c2cc3cc(Cl)ccc3o2)c(N)c1C#N | -13%[5.75 µM]
CCC/C=C(\CCC)C(NS(=O)(=O)c1ccc(-c2ccccc2)cc1)c1ccc(C(=O)OC)cc1 (stereo unspecified) | -19%
CC(=O)Nc1ccc(S(=O)(=O)N2CCC(c3nc4ccccc4[nH]3)CC2)cc1 | -18%
CCNc1ncc2nc(-c3cccs3)c(=O)n(Cc3cccc(OC)c3)c2n1 | 0%
COC(F)(C(=O)Nc1ccc2c(c1)C(=O)NC2=O)C(F)(F)F (stereo unspecified) | -2%
CCC(=O)Nc1ccc(-c2nnc(SCC(=O)Nc3nccs3)n2C)cc1 | -6%
COc1cc(NC(=O)Nc2ccccc2)c(OC)cc1NC(=O)CN1CCCCC1 | 65%
COc1ncc2nc(C)c(=O)n(CCC#N)c2n1 | -5%
Cc1nnc(S(=O)(=O)c2ccc(N=Nc3c(N)nc(N)nc3N)cc2)s1 | -5%[5.75 µM]
COc1ccccc1Nc1nc(C)cc(=O)[nH]1 | -2%
O=C(O)CCc1ccc(-c2ccccc2)[nH]1 | -5%[5.75 µM]
COc1ccc(CNC(=O)Cn2nc(-c3ccc4c(c3)OCCO4)ccc2=O)cc1 | 21%
O=C(C1=C(O)C(=O)N(c2ncccn2)C1c1cccs1)c1ccco1 (stereo unspecified) | -11%
CCC(C)NC(=O)CCS(=O)(=O)c1ccc2c(c1)n(C)c(=O)c(=O)n2C (stereo unspecified) | 4µM*[single pt active]
Cn1c(=O)c2c(nc(Oc3ccccn3)n2C)n(C)c1=O | 4%
CC(=O)N1CCCc2cc(S(=O)(=O)N3CCN(c4ccccn4)CC3)ccc21 | 60%
Cc1sc(CO)c(Sc2ccccc2)c1C(=O)O | -7%

From PubChem BioAssay
